ID4 SMM: binders of human ID4 protein, primary screen, biochemical, small molecule microarray, single point. DNA-binding protein inhibitor ID-4 (Homo sapiens), P47928. Flag-ID4 binding, fluorescence F/B. calls only. hit rate 1.2% among 31,000. AID 624137, 2012;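 active = spot signal over background at p below 0.07 in all four prints; compounds were printed on slides so no solution concentration is given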;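 also: a binder raises fluorescence above local background on the spot; about 2 pmol printed per array spot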
Target sequence (P47928 whole entry, looked up): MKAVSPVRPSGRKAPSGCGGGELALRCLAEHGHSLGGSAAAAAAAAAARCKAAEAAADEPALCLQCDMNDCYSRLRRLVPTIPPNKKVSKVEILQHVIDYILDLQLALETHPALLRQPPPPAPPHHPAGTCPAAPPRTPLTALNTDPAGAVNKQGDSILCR
mut p53 SMM: binders of human mutant p53, primary screen, biochemical, small molecule microarray, anti-GST fluorescence. mutant tumor protein p53 (GST-tagged), Homo sapiens. small molecule microarray binding. calls only. hit rate 0.4% among 17,000;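 active = compounds whose four printed spots each glow above background more than chance allows, each with a p-value under 7%; compounds were printed on slides so no solution concentration is given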;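 also: about 2 pmol printed per array spot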
STAT3 SMM: STAT3 binders, primary screen, biochemical, small molecule microarray, single point, set 2; Signal transducer and activator of transcription 3 (Homo sapiens), P40763; His-STAT3 binding, anti-His fluorescence; calls only; hit rate 0.2% among 17,000; AID 624138, 2012;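 active = compounds whose four printed spots each show fluorescence over background unusually high for their array block, chance value under 7%; compounds were printed on slides so no solution concentration is given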;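 also: about 2 pmol printed per array spot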
Target sequence (P40763 whole entry, looked up): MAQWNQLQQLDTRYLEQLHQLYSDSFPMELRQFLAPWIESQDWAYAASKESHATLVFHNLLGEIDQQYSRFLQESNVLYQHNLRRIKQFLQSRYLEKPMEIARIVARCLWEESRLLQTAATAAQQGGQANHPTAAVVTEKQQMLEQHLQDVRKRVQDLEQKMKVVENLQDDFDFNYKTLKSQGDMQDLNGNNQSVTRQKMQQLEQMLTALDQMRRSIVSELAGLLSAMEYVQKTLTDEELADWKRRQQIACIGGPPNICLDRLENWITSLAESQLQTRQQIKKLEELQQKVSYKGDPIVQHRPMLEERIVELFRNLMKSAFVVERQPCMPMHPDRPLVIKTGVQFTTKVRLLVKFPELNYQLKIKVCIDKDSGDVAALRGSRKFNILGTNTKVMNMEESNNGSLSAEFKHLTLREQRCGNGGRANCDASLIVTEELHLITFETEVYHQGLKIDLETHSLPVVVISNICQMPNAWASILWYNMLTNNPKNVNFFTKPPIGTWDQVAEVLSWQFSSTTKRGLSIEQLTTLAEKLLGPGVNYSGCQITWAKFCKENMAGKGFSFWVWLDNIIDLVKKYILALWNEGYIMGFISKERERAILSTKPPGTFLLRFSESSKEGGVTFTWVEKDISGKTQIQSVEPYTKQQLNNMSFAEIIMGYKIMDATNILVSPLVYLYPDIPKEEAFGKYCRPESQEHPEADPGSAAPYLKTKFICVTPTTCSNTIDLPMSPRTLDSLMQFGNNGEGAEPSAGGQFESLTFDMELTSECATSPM
Myc binder: binders of human c-Myc, primary screen, biochemical, small molecule microarray, anti-His fluorescence | Myc proto-oncogene protein (Homo sapiens), P01106 | AID 624141, 2012 | His-c-Myc binding | calls only | hit rate 1.5% among 17,000;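 active = spot fluorescence over background with P-value below 7% in all four replicate spots, showing protein binding; compounds were printed on slides so no solution concentration is given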;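 also: score is binary with 100 for all four spots passing and 0 otherwise; about 2 pmol printed per array spot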
Calls only; i = inactive; x = not tested or not shown; + = active, no number.

mol,ID4 SMM,mut p53 SMM,STAT3 SMM,Myc binder
CCOC(=O)C1=C(C)Nc2ncnn2C1c1ccccc1[N+](=O)[O-] (configuration not stated),i,i,i,i
C[C@H](CO)N1C[C@H](C)[C@@H](CN(C)CC2CC2)Oc2c(NS(=O)(=O)c3cn(C)cn3)cccc2C1=O,i,i,i,i
O=C1N[C@@H](Cc2ccccc2)C(=O)N2[C@@H]1C[C@@H](C(=O)NCc1ccc(F)cc1)[C@H]2c1ccc(O)cc1,+,i,i,i
COc1ccc(-c2cc3c(c(-c4ccc(Oc5ccccc5)cc4)n2)[Si](C(C)C)(C(C)C)OC3)cn1,i,i,i,i
C[C@@H]1CCCCO[C@@H](CN(C)C(=O)c2ccncc2)[C@@H](C)CN([C@H](C)CO)C(=O)c2cc(NS(=O)(=O)c3ccccc3)ccc2O1,i,i,i,i
C[C@@H]1CN([C@H](C)CO)C(=O)c2cc(NC(=O)Cc3ccccc3)ccc2O[C@@H](C)CCCCO[C@@H]1CN(C)S(=O)(=O)c1cccs1,i,i,i,i
C[C@@H]1CN([C@H](C)CO)C(=O)Cc2cc(NC(=O)Nc3ccccc3)ccc2O[C@@H]1CN(C)C(=O)Nc1ccc(C(F)(F)F)cc1,i,i,i,i
C[C@@H]1CCCCO[C@H](CN(C)Cc2ccccc2)[C@H](C)CN([C@@H](C)CO)C(=O)c2cc(NS(=O)(=O)c3cccs3)ccc2O1,i,i,i,i
Cc1ccc(S(=O)(=O)N(CC(=O)N(C)C)c2cccc([N+](=O)[O-])c2)cc1,i,i,i,i
C#CCNC(=O)C1=C[C@H](c2ccccc2)[C@@H](CCCO)[C@H](OCC)O1,i,i,i,i
C[C@@H]1CN([C@@H](C)CO)C(=O)Cc2cc(NC(=O)NC3CCCCC3)ccc2O[C@H]1CN(C)S(=O)(=O)c1ccccc1,i,i,i,i
CNC[C@@H]1Oc2ccc(NC(=O)C3CC3)cc2CC(=O)N([C@H](C)CO)C[C@@H]1C,i,i,i,i
CNC[C@H]1OCCCC[C@H](C)Oc2ccc(NC(=O)Nc3ccccc3)cc2C(=O)N([C@@H](C)CO)C[C@@H]1C,i,i,i,i
COc1cc(NC(=O)C(=O)NCCN2CCNCC2)c(OC)cc1Cl,i,i,i,i
C[C@H]1CN([C@@H](C)CO)C(=O)Cc2cc(NC(=O)NC3CCCCC3)ccc2O[C@H]1CN(C)C(=O)Nc1ccccc1,i,i,i,i
C[C@@H]1CCCCO[C@H](CN(C)S(=O)(=O)c2ccccc2)[C@@H](C)CN([C@H](C)CO)C(=O)c2cc(NC(=O)CCC(F)(F)F)ccc2O1,i,i,i,i
CCCn1nnc(NC(=O)COc2ccc(C)cc2)n1,i,i,i,i
O=C1CC(c2nc3ccccc3n2CCCOc2ccccc2)CN1c1ccccc1 (configuration not stated),i,i,i,i
CCCc1cc(=O)[nH]c(Nc2nc(C)c3cc(OC)ccc3n2)n1,i,i,i,i
Cc1cc(=O)n2[nH]c(NCc3cccc([N+](=O)[O-])c3)nc2n1,i,i,i,i
CC(C)NC(=O)Nc1ccc2c(c1)C(=O)N([C@@H](C)CO)C[C@@H](C)[C@@H](CN(C)C(=O)Nc1ccccc1)OCCCC[C@@H](C)O2,i,i,i,i
C[C@H](CO)N1C[C@H](C)[C@H](CN(C)C)Oc2ccc(NC(=O)CCC(F)(F)F)cc2C1=O,i,i,i,i
O=C1O[C@H](c2ccccc2)[C@H](c2ccccc2)N2[C@H]1[C@@H](C(=O)NC[C@H](O)c1ccccc1)[C@]1(C(=O)Nc3ccc(C#CCCO)cc31)[C@H]2c1ccccc1OCCO,x,i,i,i
Cc1noc(C)c1NC(=O)Nc1cccc2c1O[C@@H](CN(C)S(=O)(=O)c1cccs1)[C@@H](C)CN([C@H](C)CO)C2=O,i,i,i,i
CCOc1ccc2nc(SCC(=O)Nc3ccc(Cl)cc3)[nH]c2c1,i,i,i,i

The final four compounds of the section above open the next one.
mol,ID4 SMM,mut p53 SMM,STAT3 SMM,Myc binder
C[C@H](CO)N1C[C@H](C)[C@H](CN(C)C)Oc2ccc(NC(=O)CCC(F)(F)F)cc2C1=O,i,i,i,i
O=C1O[C@H](c2ccccc2)[C@H](c2ccccc2)N2[C@H]1[C@@H](C(=O)NC[C@H](O)c1ccccc1)[C@]1(C(=O)Nc3ccc(C#CCCO)cc31)[C@H]2c1ccccc1OCCO,x,i,i,i
Cc1noc(C)c1NC(=O)Nc1cccc2c1O[C@@H](CN(C)S(=O)(=O)c1cccs1)[C@@H](C)CN([C@H](C)CO)C2=O,i,i,i,i
CCOc1ccc2nc(SCC(=O)Nc3ccc(Cl)cc3)[nH]c2c1,i,i,i,i
O=C(Cn1c(C(F)(F)F)nc2ccccc21)NCc1ccco1,i,i,i,i
Cc1noc(C)c1NC(=O)N(C)C[C@H]1Oc2ccc(NC(=O)Cc3ccccc3)cc2C(=O)N([C@H](C)CO)C[C@H]1C,i,i,i,i
C[C@@H]1CN([C@H](C)CO)C(=O)CCCn2cc(nn2)CO[C@@H]1CN(C)C(=O)Nc1ccc(-c2cccs2)cc1,i,i,i,i
C[C@@H]1CCCCO[C@@H](CN(C)C(=O)Cc2ccccc2)[C@H](C)CN([C@H](C)CO)C(=O)c2cc(NC(=O)Nc3ccccc3)ccc2O1,i,i,i,i
C[C@@H]1CN([C@@H](C)CO)C(=O)c2cccc(NC(=O)c3nc4ccccc4s3)c2O[C@H]1CN(C)C(=O)NC1CCCCC1,i,i,i,i
COC(=O)C1=CO[C@@H](O[C@@H]2O[C@H](CO)[C@@H](O)[C@H](O)[C@H]2O)[C@H]2[C@@H]1C=CC21C=C(C(C)O)C(=O)O1 (some centres not stated),i,i,i,i
CC(=O)Nc1ccccc1C(=O)OCc1cccc(C(=O)c2ccccc2)c1,i,i,i,i
O=C(C1=C[C@@H](C2CCCCC2)C[C@@H](OCCCCO)O1)N1CCOCC1,i,i,i,i
COc1ccccc1C(=O)NCCNC(=O)c1ccco1,i,i,i,i
CC1OC(OCC2OC(Oc3c(-c4ccc(O)cc4)oc4cc(O)cc(O)c4c3=O)C(O)C(O)C2O)C(O)C(O)C1O (configuration not stated),i,i,i,i
Cc1noc(C)c1S(=O)(=O)Nc1ccc2c(c1)CC(=O)N([C@@H](C)CO)C[C@H](C)[C@H](CN(C)C(=O)Nc1ccccc1)O2,i,i,i,i
COc1ccc(S(=O)(=O)N(C)C[C@@H]2Oc3c(NC(=O)c4cnccn4)cccc3C(=O)N([C@@H](C)CO)C[C@H]2C)cc1,i,i,i,i
Cc1noc(C)c1NC(=O)N(C)C[C@H]1Oc2c(cccc2N(C)C)C(=O)N([C@H](C)CO)C[C@@H]1C,i,i,i,i
C/C=C1/[C@H](O[C@@H]2O[C@H](CO)[C@@H](O)[C@H](O)[C@H]2O)OC=C(C(=O)OC)[C@H]1CC(=O)OCC(C)[C@@H]1C[C@H]2OC(=O)C3=CO[C@@H](O[C@@H]4O[C@H](CO)[C@@H](O)[C@H](O)[C@H]4O)/C(=C/C)[C@@H]3CC(=O)OC[C@@H]1[C@H]2C (some centres not stated),i,i,i,i
COc1cc(C(=O)OC2OC(CO)C(O)C(O)C2O)cc(OC)c1OC (configuration not stated),i,i,i,i
C[C@H]1CN([C@@H](C)CO)C(=O)Cc2cc(NC(=O)NC3CCCCC3)ccc2O[C@H]1CN(C)Cc1ccncc1,i,i,i,i
C[C@@H]1CN([C@H](C)CO)C(=O)c2cccc(NS(C)(=O)=O)c2O[C@H]1CN(C)C,i,i,i,i
S=C(NCc1ccco1)NCC1CCCO1 (configuration not stated),i,i,i,i
O=C1C[C@@H](c2ccc(O)c(O)c2)Oc2cc(O[C@@H]3O[C@H](CO)[C@@H](O)[C@H](O)[C@H]3O)cc(O)c21,i,i,i,i
C[C@@H]1CN([C@H](C)CO)C(=O)c2cccc(N(C)C)c2O[C@H]1CN(C)C(=O)Nc1ccc(C(F)(F)F)cc1,i,i,i,i
C[C@H](CO)N1C[C@H](C)[C@H](CN(C)Cc2ccc3c(c2)OCO3)Oc2ncc(Br)cc2C1=O,i,i,i,i
Cc1cc2oc(C(=O)Nc3nnc(SCc4ccccc4)s3)c(C)c2cc1C,i,i,i,i
C=C[C@H](COC(C)=O)N(Cc1ccc(OC(C)=O)c(OC)c1)S(=O)(=O)c1ccc(Br)cc1,i,i,i,i
CC(Oc1ccc(Br)cc1)C(=O)NCc1ccco1 (configuration not stated),i,i,i,i
C[C@H](CO)N1C[C@H](C)[C@H](CN(C)Cc2ccc(C(F)(F)F)cc2)Oc2ccc(NC(=O)Nc3ccc(F)cc3)cc2C1=O,x,i,i,i
C[C@@H]1CN([C@@H](C)CO)C(=O)c2cc(NC(=O)Nc3ccc4c(c3)OCO4)ccc2O[C@@H]1CN(C)C(=O)NC1CCCCC1,i,i,i,i
C[C@@H]1CN([C@@H](C)CO)C(=O)Cc2cc(NS(=O)(=O)c3cccs3)ccc2O[C@@H]1CN(C)C(=O)NC1CCCCC1,x,i,i,i
CC(=O)OC1C(C)OC(OC2C(CO)OC(OC(=O)[C@]34CCC(C)(C)CC3C3=CCC5[C@@]6(C)CC[C@H](OC7OC(CO)C(OC8OC(CO)C(OC9OCC(O)C(O)C9O)C(O)C8O)C(O)C7O)[C@@](C)(CO)C6CC[C@@]5(C)[C@]3(C)CC4)C(OC3OC(C)C(O)C(O)C3O)C2O)C(O)C1O (some centres not stated),i,i,i,+
C[C@@H]1CN([C@H](C)CO)C(=O)c2cc(NC(=O)Nc3ccccc3)ccc2O[C@@H](C)CCCCO[C@H]1CN(C)S(=O)(=O)c1cn(C)cn1,x,i,i,i
C[C@H](CO)N1C[C@H](C)[C@H](CN(C)C(=O)NC2CCCCC2)Oc2ccc(NS(C)(=O)=O)cc2CC1=O,i,i,i,i
COc1cc2c(=O)c(-c3ccc(O)cc3)coc2cc1O[C@@H]1O[C@@H](C)[C@H](O)[C@@H](O)[C@H]1O,x,i,i,i
C[C@H](CO)N1C[C@H](C)[C@@H](CN(C)C(=O)Nc2cccc3ccccc23)Oc2ccc(NC(=O)Nc3cccc4ccccc34)cc2CC1=O,i,i,i,i
CC1(C)Cc2c(sc3nc(SCC(=O)c4ccccc4)nc(N)c23)CS1,i,i,i,i
C[C@@H]1CN([C@@H](C)CO)C(=O)Cc2cc(NC(=O)C3CC3)ccc2O[C@@H]1CN(C)Cc1ccc(Cl)c(Cl)c1,i,i,i,i
COCCOC(=O)N1C(=O)[C@@]2(c3cc(C#CC4(O)CCCCCC4)ccc31)[C@H](c1ccccc1OCCO)N1[C@H](c3ccccc3)[C@H](c3ccccc3)OC(=O)[C@H]1[C@@H]2C(N)=O,i,i,i,i
Nc1ncnc(Sc2nc3ccccc3s2)c1[N+](=O)[O-],i,i,i,i
C[C@H](CO)N1C[C@H](C)[C@@H](CN(C)C)Oc2ccc(NC(=O)C3CC3)cc2CC1=O,i,i,i,i
C[C@H](CO)N1C[C@H](C)[C@@H](CN(C)Cc2ccc(-c3ccccc3)cc2)Oc2ccc(NC(=O)CCN3CCOCC3)cc2CC1=O,i,i,i,i
O=C(NCCCCN1CCOCC1)c1cc2ccccc2o1,i,i,i,i
C[C@@H]1CN([C@@H](C)CO)C(=O)c2cccc(NS(C)(=O)=O)c2O[C@@H]1CN(C)CC1CC1,i,i,i,i
CCO[C@H]1OC(C(=O)O)=C[C@@H](c2ccc(Br)cc2)[C@@H]1CCCO,x,i,i,i
O=C(COc1cc(O)c2c(=O)c3ccccc3oc2c1)c1ccc(Br)cc1,i,i,i,i
O=c1cc(-c2ccccc2)nc(SCc2nc3ccccc3[nH]2)[nH]1,i,i,i,i
COc1ccc(S(=O)(=O)NCc2ccccn2)c(C)c1C,i,i,i,i
Cc1noc(C)c1NC(=O)N(C)C[C@@H]1OCCCC[C@@H](C)Oc2ccc(N(C)C)cc2C(=O)N([C@H](C)CO)C[C@@H]1C,i,i,i,i
C[C@@H]1CCCCO[C@@H](CN(C)C(=O)NC2CCCCC2)[C@@H](C)CN([C@@H](C)CO)C(=O)c2cc(NC(=O)Nc3ccccc3)ccc2O1,x,i,i,i
CC(C)NC(=O)Nc1ccc2c(c1)C(=O)N([C@@H](C)CO)C[C@H](C)[C@H](CN(C)Cc1ccccc1)OCCCC[C@H](C)O2,i,i,i,i
Cc1ccc([N+](=O)[O-])cc1NC(=O)c1ccc(NC(=O)C2(c3ccccc3)CCOCC2)cc1,i,i,i,i
C[C@H](CO)N1C[C@H](C)[C@@H](CN(C)Cc2ccccc2)Oc2c(NS(C)(=O)=O)cccc2C1=O,i,i,i,i
C[C@@H]1CN([C@@H](C)CO)C(=O)CCCn2cc(nn2)CO[C@@H]1CN(C)S(=O)(=O)c1ccc(-n2cccn2)cc1,i,i,i,i

Source: PubChem (Broad Institute)

The list is partial; the hit share may differ from the screen's.
